AmpC_inh_no_det: Promiscuous and Specific Inhibitors of AmpC Beta-Lactamase (assay without detergent). P00811. AmpC nitrocefin hydrolysis, absorbance 480 nm, no detergent; potencies from a single point are estimates. Potency, µM (highest dose often 28.7 µM), without a hit: at the top dose activity change, negative = inhibition. 1.8% of 71,000 active; active = falling curve, for most hits resting on a single point; inconclusive = weak or doubtful change; inactive = flat or rising curve; note: % of control where 0% means no effect; about half of the hits show no inhibition at the top dose; a quarter of the inactives give rising signals
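Enzyme, pH 7.0 phosphate. Compound titrations were pre-incubated with AmpC for 15 min at room temperature before nitrocefin (stock 800 uM) addition; product formation was recorded at 480 nm every 20 s for 4 min.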
* = called active by the depositor; ? = inconclusive; & = joins results of further samples; [ ] = dose if it differs, or a comment. Potency is the fitted concentration of half-maximal effect. These rows are one share of the data; count on the stated rates, not on these rows.

SMILES AmpC_inh_no_det
CCn1cc(C(=O)O)c(=O)c2cc(F)c(N3CCNCC3)nc21 5%[12.8_µM]
COc1ccc(/C=C\C(=O)Nc2ccccc2C(=O)O)cc1OC 27%&-7%
COc1cc([C@H]2Oc3cc([C@H]4Oc5cc(O)cc(O)c5C(=O)[C@@H]4O)ccc3O[C@@H]2CO)ccc1O ?
Cc1cccc(Nc2cc(Cl)nc(SCC(=O)O)n2)c1C 10%[5.75_µM]
CCOC(=O)NNc1nncc2ccccc12 1%[12.8_µM]
CCCCOc1ccc(CC(=O)NO)cc1 0%[12.8_µM]
CC[C@H]1C(=O)OC[C@H]1Cc1cncn1C 1%[5.75_µM]
NC(N)=NC(=O)Cc1c(Cl)cccc1Cl 5%
COc1cc([C@@H]2Oc3cc([C@H]4Oc5cc(O)cc(O)c5C(=O)[C@H]4O)ccc3O[C@H]2CO)ccc1O -19%
CC(=O)Nc1ccccc1 -17%

Among those listed so far, these have an aryl methoxy group.
SMILES AmpC_inh_no_det
COc1ccc(/C=C\C(=O)Nc2ccccc2C(=O)O)cc1OC 27%&-7%
COc1cc([C@H]2Oc3cc([C@H]4Oc5cc(O)cc(O)c5C(=O)[C@@H]4O)ccc3O[C@@H]2CO)ccc1O ?
COc1cc([C@@H]2Oc3cc([C@H]4Oc5cc(O)cc(O)c5C(=O)[C@H]4O)ccc3O[C@H]2CO)ccc1O -19%

Remaining list, next part.
SMILES AmpC_inh_no_det
CCCOC(=O)c1ccc(O)cc1 -5%&-5%
Cn1c(=O)c2c(ncn2CCO)n(C)c1=O 6%[12.8_µM]
CCCCNC(=O)[C@@H]1Cc2ccccc2N1C(=O)[C@H](N)CC 7%
COc1ccccc1OC[C@H](O)COC(N)=O -16%[12.8_µM]
CC(=O)Nc1ccc(O)cc1 -14%
CCC(=O)O[C@@]1(C(=O)SCF)[C@@H](C)C[C@H]2[C@@H]3C[C@@H](F)C4=CC(=O)C=C[C@@]4(C)[C@]3(F)[C@@H](O)C[C@]21C 15%[12.8_µM]
CCCCCCc1ccc(O)cc1O -9%
COc1cc2nc(N3CCN(C(=O)[C@H]4COc5ccccc5O4)CC3)nc(N)c2cc1OC 38%
CCCCC1C(=O)N(c2ccccc2)N(c2ccccc2)C1=O -18%&-3%

Two compounds drawn at random from those above:
SMILES AmpC_inh_no_det
COc1ccccc1OC[C@H](O)COC(N)=O -16%[12.8_µM]
CCCCC1C(=O)N(c2ccccc2)N(c2ccccc2)C1=O -18%&-3%

Reprinted from above (four entries):
SMILES AmpC_inh_no_det
CCCOC(=O)c1ccc(O)cc1 -5%&-5%
Cn1c(=O)c2c(ncn2CCO)n(C)c1=O 6%[12.8_µM]
CCCCNC(=O)[C@@H]1Cc2ccccc2N1C(=O)[C@H](N)CC 7%
COc1ccccc1OC[C@H](O)COC(N)=O -16%[12.8_µM]
